# rRNA inh HTS: inhibits bacterial ribosomal RNA function over humanized ribosomes. E. coli WT GFP vs humanized-ribosome RFP mutants, fluorescence, 24 h; active compounds read low; DMSO median 0, no signal -100. GFP signal change (wild-type ribosome), % (concentration not given with the values). 350,000 tested, 1.6% active. AID 720706;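 active means significant combined selectivity score with lowered wild-type GFP, culture density cut under 30%, mutant RFP and density less affected; inactive means any of these conditions unmet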; further: one replicate is shown; some compounds called inactive have numbers as strong as hits
# MLL AF4-AF9 inh: MLL-AF4/AF9 protein interaction inhibition. AID 651704. AlphaScreen, biotin-AF4 peptide binding to FLAG-AF9. P42568. 350,000 tested, 0.47% active. inhibition, % at 10 µM;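 active means every replicate reaching a set inhibition limit, whatever the replicate mean, cut at about 25% in these data; inconclusive means mean inhibition reaches that limit but some replicates miss it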;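 further: 0% = plate neutral control median and 100% = total signal loss; the record names both 10 and 1 µM as test concentration; the first replicate is given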
# Target sequence (P42568 whole entry, looked up): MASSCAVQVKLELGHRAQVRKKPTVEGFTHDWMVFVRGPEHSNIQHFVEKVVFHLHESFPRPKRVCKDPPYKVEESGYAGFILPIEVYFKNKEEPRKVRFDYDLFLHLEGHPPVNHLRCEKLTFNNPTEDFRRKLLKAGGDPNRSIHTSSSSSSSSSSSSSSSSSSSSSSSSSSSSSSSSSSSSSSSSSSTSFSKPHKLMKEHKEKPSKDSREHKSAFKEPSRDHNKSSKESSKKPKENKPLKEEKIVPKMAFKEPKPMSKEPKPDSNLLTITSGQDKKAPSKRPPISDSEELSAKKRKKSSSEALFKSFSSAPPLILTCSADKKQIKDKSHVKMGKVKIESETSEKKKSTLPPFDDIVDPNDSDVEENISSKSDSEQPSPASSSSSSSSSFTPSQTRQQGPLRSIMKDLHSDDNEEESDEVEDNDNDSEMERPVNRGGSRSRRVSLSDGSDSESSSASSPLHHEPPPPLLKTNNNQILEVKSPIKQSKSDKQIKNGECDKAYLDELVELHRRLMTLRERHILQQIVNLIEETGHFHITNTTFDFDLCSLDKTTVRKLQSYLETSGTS
# Calb FLC: C. albicans growth modulation with fluconazole; C. albicans CaCi-2 (fluconazole-resistant clinical isolate) + fluconazole, Alamar Blue growth, 48 h; growth inhibition, % (no concentration beside the values); 300,000 tested, 0.57% active; AID 1979;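 active means most replicates above 75%; inconclusive means exactly half above 75%; inactive means most below 75%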;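 further: all wells also contain fluconazole at 8 µg/ml as a sub-toxic cotreatment; 0% = median of DMSO wells and 100% = median of geldanamycin control wells; wells of about 8 µL received 7.5 nL stock; the first replicate is given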
# T cruzi inh: blocks replication of Trypanosoma cruzi | 300,000 tested, 1.4% active | inhibition, % (no concentration beside the values) | T. cruzi beta-gal in NIH3T3, luminescence, 90 h;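 active means mean inhibition across valid replicates above about 55%, limit read from the data; inconclusive means mean below that limit but half or more replicates reach it; inactive means mean below it, under half of replicates reach it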;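 further: signal also drops with host cell toxicity which is not excluded here; 0% = plate median of DMSO wells and 100% = zero luminescence signal; higher percent means less beta-gal luminescence so fewer parasites; stock transfer was 50 nL into about 50 µL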
# Beta apoptosis: beta cell apoptosis inhibition | AID 435005 | 300,000 tested, 0.8% active | INS-1E cytokine-induced death, ATP luminescence, 48 h; percent of positive-control rescue, neutral wells zero | protection from apoptosis, % (no concentration beside the values);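 active means all replicates at 75% or more, or half of them and the mean; inconclusive means half reach 75% but not the mean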;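 further: 0% = cytokine-treated negative control wells and 100% = positive control rescue; higher means more ATP so stronger rescue from cytokine killing; wells of about 40 µL received 100 nL stock; the first replicate is given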
# FGF22 binding: binders of recombinant human FGF22 by thermal shift; Q9HCT0; SYPRO orange fluorescence; percent of sucrose octasulfate shift, DMSO zero; calls only at 9.99 µM; 340,000 tested, 1.5% active;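 active means melting point raised past a set limit in the mean and every replicate; inconclusive means no clear call; three in four hits are not shown here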
# Target sequence (Q9HCT0 whole entry, looked up): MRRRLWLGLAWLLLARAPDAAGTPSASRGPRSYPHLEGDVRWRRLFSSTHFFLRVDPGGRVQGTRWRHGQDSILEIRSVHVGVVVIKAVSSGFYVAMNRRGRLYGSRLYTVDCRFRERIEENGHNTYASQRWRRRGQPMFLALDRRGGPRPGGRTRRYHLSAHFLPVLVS
# RanGTP-Imp inh: disruptors of Ran-importin-beta complex formation – biochemical, FRET, CFP-Ran, YFP-importin-beta, homogeneous, primary screen; cell-free CFP-Ran/YFP-importin-beta FRET ratio; inhibition, % (no concentration beside the values); 300,000 tested, 1.1% active; AID 2216;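 active means most replicates above 15%; inconclusive means exactly half above 15%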;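 further: 0% = DMSO wells and 100% = Ran loaded with GDP instead of GTP; wells of about 40 µL received 100 nL stock; the first replicate is given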
# ALR inh: human ALR oxidase inhibition via reduced H2O2. purified ALR, DTT oxidation, H2O2 HRP-luminol luminescence. inhibition, % (test concentration not listed). P55789. 290,000 tested, 3.8% active. AID 485317;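 active means mean and each replicate at 75% or more; inconclusive means only one of the two met; inactive means neither met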;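 further: stock transfer was 7.5 nL into about 7.5 µL; 0% = neutral wells and 100% = wells with inactivated enzyme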
# Target sequence (P55789 whole entry, looked up): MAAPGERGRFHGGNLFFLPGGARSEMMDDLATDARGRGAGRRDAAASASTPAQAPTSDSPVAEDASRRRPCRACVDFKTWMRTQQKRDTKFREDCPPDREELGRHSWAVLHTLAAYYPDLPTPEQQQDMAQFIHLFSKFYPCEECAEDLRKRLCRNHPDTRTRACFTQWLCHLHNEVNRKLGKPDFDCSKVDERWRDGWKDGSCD
# rRNA inh HTS OD600: second read-out of rRNA inh HTS, no call of its own (marks repeat the call); OD600 change, %; measured here: OD600 growth;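 optical density of the mix in the first replicate; 0 = DMSO median and -100 = no signal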
# rRNA inh HTS RFP: further read-out of rRNA inh HTS, marked with its call; RFP signal change, %; measured here: RFP humanized mutant strains;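 first replicate; 0 = DMSO median and -100 = no signal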
# Numbers without * were called inactive; i = inactive; ? = inconclusive; · = not tested or not shown; & = joins results of further samples. These rows are one share of the data. The share of hits here may be higher or lower than overall.
SMILES,rRNA inh HTS,rRNA inh HTS OD600,rRNA inh HTS RFP,MLL AF4-AF9 inh,Calb FLC,T cruzi inh,Beta apoptosis,FGF22 binding,RanGTP-Imp inh,ALR inh
COCCCN1C(=O)C(=O)/C(=C(/O)c2ccc3c(c2)OCCO3)C1c1ccc(C(=O)OC)cc1 (centres undefined),·,·,·,·,0,-13,-4,·,0.7,85*
CCCNc1nc2c(c(=O)[nH]c(=O)n2C)n1CCCc1ccccc1,·,·,·,·,1,-11,5,·,4.4,-3
CC(CS(=O)(=O)c1ccc2c(c1)NC(=O)CS2)C(=O)N1CCN(c2cccc(Cl)c2)CC1 (centres undefined),16,8,52,-17,?,20,2,i,3.1,-7
OCC1(CO)COC(c2ccccc2)=N1,12,9,4.4,-1.9,-9,-12,-1,i,-0.2,-15
CC(C)CCC1CC(CSC(=N)N)OC1=O (centres undefined),·,·,·,·,-3,-12,-4,·,6.5,·
Cc1ccc(C)c(-c2cc(C(=O)NCc3cccs3)c3ccccc3n2)c1,-1,12,-4.9,-1.9,8,-13,17,i,0.2,-2
CN(C)CC(C)(C)CNC(C(=O)Nc1ccc(Cl)cc1C(F)(F)F)c1ccccc1 (centres undefined),-1,0,1.9,0.2,-19,28,1,i,3.7,-2
CNC(=S)N(CCc1c(C)[nH]c2ccccc12)Cc1cccnc1,-1,-6,2.7,9.3,·,-6,-1,i,7.8,100*
CCCc1nnc(SCC(=O)N2CCCC2)n1Cc1ccco1,-1,-7,-1.7,-1.7,14,-9,-5,i,-1.9,-4
COc1ccc2nc3sc(C(=O)NCc4cccs4)c(N)c3cc2c1,·,·,·,·,-2,9,8,·,-9.8,-1
Cc1ccccc1S(=O)(=O)Cc1ccc(C(=O)NC2CCCCC2C)o1 (centres undefined),-7,-10,-0.5,2.2,1,4,7,i,3.9,-8
COCCNC(=S)Nc1cccc2cnccc12,1,1,-5.5,-0.6,1,-24,1,i,1.0,-24
Cc1ccccc1C(=O)NC(NC(=O)c1ccccc1C)c1cccc([N+](=O)[O-])c1,·,·,·,·,4,-8,4,·,1.4,·
CNc1oc(-c2ccc(Cl)cc2)nc1C#N,·,·,·,·,-2,15,4,·,-2.2,5
O=C(/C=C/c1ccc([N+](=O)[O-])cc1)NCc1ccc2c(c1)OCO2,17,12,1.7,-1.7,2,-2,2,i,1.0,-11
Cc1ccsc1C(=O)NCCc1ccc(S(N)(=O)=O)cc1,-53,-79,-16,-6.2,5,-13,-12,i,1.9,-4
CC(C)CNC(=O)C(=O)NCC1OCCCN1S(=O)(=O)c1ccc2c(c1)OCCO2 (centres undefined),19,10,4.6,-0.8,2,-1,-2,i,0.3,4
NC(=O)c1c(NC(=O)C2COc3ccccc3O2)sc2c1CCN(Cc1ccccc1)C2 (centres undefined),10,-5,5.6,-4.4,58,3,9,i,-2.6,10
O=C(Cc1c[nH]c2ccccc12)NCc1ccc(Cl)cc1,-10,-3,-2.2,-3.2,52,-27,-2,i,1.5,-2
C=CCNc1ncnc2ccc(Br)cc12,·,·,·,-1.9&-21,-4,-1,11,i,-3.5,-6
COC(=O)c1ccc(NS(=O)(=O)NC(=O)c2c[nH]c3ccccc23)cc1,0,4,-1.7,2.4,-3,-12,-3,i,-0.4,-5
CCc1cccc(CC)c1-n1c(SCC(=O)c2c(N)n(C)c(=O)n(C)c2=O)nnc1-c1cccnc1,·,·,·,·,-13,-5,-6,·,-2.7,-8
COC(=O)c1c(N)sc(C(C)=O)c1C,4,5,-2.5,0.9,2,-12,·,i,-13,-15
C/C(CC(=O)Nc1ccc([N+](=O)[O-])cc1)=N\NC(=O)c1ccccc1[N+](=O)[O-],5,6,-4.7,-0.1,-6,-1,-2,i,4.4,-2
Cc1ccccc1NC(=O)CSc1nnc(NC(=O)c2ccco2)s1,3,18,0.2,-3.7,21,1,-3,i,1.9,-7

# ALR inh: what is marked active above
SMILES | rRNA inh HTS | rRNA inh HTS OD600 | rRNA inh HTS RFP | MLL AF4-AF9 inh | FGF22 binding | RanGTP-Imp inh | ALR inh
COCCCN1C(=O)C(=O)/C(=C(/O)c2ccc3c(c2)OCCO3)C1c1ccc(C(=O)OC)cc1 (centres undefined) | · | · | · | · | · | 0.7 | 85*
CNC(=S)N(CCc1c(C)[nH]c2ccccc12)Cc1cccnc1 | -1 | -6 | 2.7 | 9.3 | i | 7.8 | 100*

# Later entries:
SMILES,rRNA inh HTS,rRNA inh HTS OD600,rRNA inh HTS RFP,MLL AF4-AF9 inh,Calb FLC,T cruzi inh,Beta apoptosis,FGF22 binding,RanGTP-Imp inh,ALR inh
O=C(NCCN1CCCC1=O)Nc1ccccc1,·,·,·,·,-1,-7,-3,·,2.2,-4
Cc1ccccc1Oc1ccc(S(=O)(=O)NCCC(=O)O)cc1,·,·,·,·,-7,-8,-3,·,0.4,-5
CCc1ccc2c(c1)c1nnc(NN)nc1n2CC,-4,2,7.2,8.0,5,38,14,i,0.8,10
COCCNC(=S)N/N=C(\C)c1ccc(Cl)s1,-3,-16,2.3,6.0,-5,9,3,·,0.0,3
CCc1ccc(NC(=O)COc2ccc(Br)cn2)cc1,8,13,-6.5,-1.9,4,1,-2,i,-0.6,·
CCC(O)CNC(=O)NC(=C(Cl)Cl)c1ccc(C)c(F)c1 (centres undefined),-9,-4,-0.4,-2.4,?,-28,-4,·,?,12
CC1CCCN(C(=O)C(C)Sc2nc(-c3ccccc3)cc(C(F)(F)F)n2)C1 (centres undefined),·,·,·,·,-10,21,3,·,-5.0,1
COc1ccccc1NC(=O)CSc1ncc(CO)n1Cc1ccc(F)cc1,-20*,-2.4*,2.3*,0.9,1,-4,-1,i,6.4,-3
CCC(C)NC(=O)C1CCN(C(=O)COc2ccc3c4c(c(=O)oc3c2C)CCCC4)CC1 (centres undefined),9,11,0.7,-1.2,3,4,6,i,0.9,-5
COc1ccc(C(=O)NCCS(=O)(=O)N2CCC3(CC2)OCCO3)cc1,4,3,-1.4,-2.6,2,5,-5,i,1.8,1
Cc1sc2nc(CSc3nc4ccccc4s3)[nH]c(=O)c2c1C,3,10,3.4,-4.8,7,-4,1,i,-10,99*
COc1ccc(N2CC(NS(=O)(=O)c3cccs3)CC2=O)cc1OC (centres undefined),8,5,0.4,2.8,3,-10,-8,i,2.3,-5
Oc1ccc(Oc2ccc3c(C(F)(F)F)cc(C(F)(F)F)nc3n2)cc1,·,·,·,·,-1,25,15,·,?,99*
COc1cc(C(=O)Nc2ccc(NC(=O)c3ccco3)nc2)cc(OC)c1OC,·,·,·,·,8,0,5,·,?,-4
Cc1cc2cc(CCNC(=O)CCCc3ccccc3)c(=O)[nH]c2cc1C,9,13,3.0,-2.2,43,13,-5,i,0.4,·
CCCCNC(=O)C1(NC(=O)Nc2ccccc2)CCCCC1,12,11,-0.9,-1.5,-18,3,-1,i,0.8,-4
Cn1cccc1C(=S)N=P(C1CCCCC1)(N1CCOCC1)N1CCOCC1,·,·,·,·,4,-16,1,·,?,18
O=C(NC1CC1)c1cccc(Nc2ccc(-c3ccc4c(c3)OCCO4)nn2)c1,·,·,·,·,41,5,-7,·,5.5,-2
COCCCN1CC(=O)N2C(c3cccc(OC)c3)c3[nH]c4ccccc4c3C[C@H]2C1=O (some centres undefined),-1,1,-0.2,-0.5,-12,5,-8,i,-0.2,100*
CCOc1ccccc1NC=C1C(=O)OC(C)(C)OC1=O,·,·,·,·,8,-14,1,·,1.3,0
CCCCOc1ccc(C(=O)NCC(=O)NCC(c2ccco2)N2CCCCC2)cc1 (centres undefined),4,1,4.8,-0.4,-5,-6,1,i,7.0,1
COc1ccc(-c2cc3ccccc3n2CC(O)CN2CCOCC2)cc1 (centres undefined),·,·,·,·,-3,6,-1,·,-10,-4
CCOC(=O)C1(Cc2ccccc2C(F)(F)F)CCN(Cc2ccc(COC)o2)CC1,-20,-19,-1.9,-7.7,-15,17,·,i,2.0,-44
COc1cccc(-n2c(=S)sc3c(=O)n(-c4ccccc4C)c(SCC(=O)O)nc32)c1,6,3,-0.4,-1.6,-7,-1,·,i,-1.6,·
COc1ccc(C(C(=O)NC2CCCC2)N(C(=O)c2csnn2)C2CC2)cc1 (centres undefined),9,3,-3.6,1.9,4,-22,8,i,0.4,-3

# Going on with the list:
SMILES,rRNA inh HTS,rRNA inh HTS OD600,rRNA inh HTS RFP,MLL AF4-AF9 inh,Calb FLC,T cruzi inh,Beta apoptosis,FGF22 binding,RanGTP-Imp inh,ALR inh
CN(C)c1oc(COc2ccccc2F)nc1C#N,·,·,·,·,-1,3,1,·,-3.1,-2
O=[N+]([O-])c1ccc2c(c1)ncn2CCc1ccccc1,8,8,2.0,-8.5,0,6,-2,i,-1.2,6
O=C(NC(c1ccc(Cl)cc1)c1cc(Cl)c2cccnc2c1O)c1cccnc1 (centres undefined),·,·,·,·,84*,58*,96*,·,-72,-2
Cc1ccc(C)c(NC2=NCC(=O)N2C2CCCCC2)c1,·,·,·,·,72,12,-2,·,-2.1,·
O=C1CN(C(=O)COC(=O)/C=C/c2ccc(OC(F)F)cc2)c2ccccc2N1,7,5,-2.4,-3.6,-4,27,-5,i,-3.2,-12
O=C(c1sccc1-c1ccccc1)N1CCN(S(=O)(=O)c2ccccc2F)CC1,0,1,-1.0,-4.2,-2,10,0,i,3.8,-1
Cn1c(CNC(=O)c2ccccc2F)nnc1SCCOc1ccccc1,-1,-5,-0.5,-1.2,23,-4,-1,i,-1.0,·
COc1ccc(-n2nc(N)c3c(=O)oc(N(C)C)nc32)cc1,·,·,·,·,?,-10,-3,·,?,-1
COc1ccc(C(C)=O)cc1COC(=O)Cn1cnc2ccccc2c1=O,·,·,·,·,-8,-8,1,·,-1.1,-2
O=C(O)c1cc(S(=O)(=O)Nc2ccc3cn[nH]c3c2)ccc1Cl,5,7,0.2,0.3,·,·,-9,i,·,·
CCn1nc(NC(=O)c2cccs2)c2cc3ccccc3nc21,·,·,·,-49,8,-6,-12,i,39*,·
CCOC(=O)Nc1nnc(-c2cccc(OC)c2)s1,·,·,·,·,27,2,2,·,-0.5,1
C[C@H](O)c1[nH]c2cc(F)ccc2c1[C@H](C)O,13,7,7.8,3.8,1,1,0,i,18*,-9
COc1ccc(CN2C(=O)CN=C2Nc2ccc(C)cc2C)cc1,·,·,·,·,-18,-5,-3,·,-7.1,-10
S=c1[nH]nc(-c2ccc3ncccc3c2)n1-c1ccc2c(c1)OCCO2,-6,-5,-0.4,-10,32,13,6,i,?,·
CC1Nc2ncnc(N3CCN(c4ccccn4)CC3)c2N(Cc2ccccc2)C1=O (centres undefined),-1,8,1.3,5.4,5,24,3,i,-0.7,1
CC(Sc1nnc(C(C)N(C)C)n1-c1ccc(Cl)cc1)C(=O)Nc1ccc2c(c1)OCO2 (centres undefined),·,·,·,·,-3,-1,-4,·,-3.2,-7
Cc1ccccc1-c1n[nH]c(=S)n1/N=C/c1c(C)nn(-c2ccccc2)c1C,·,·,·,·,1,5,-9,·,1.9,38
COc1ccc(C(=O)NN(C)c2nc(-c3ccccc3)cc(C)c2S(C)(=O)=O)cc1,·,·,·,·,-2,3,-10,·,-2.6,-8
